Screening results from PubChem BioAssay.
GIRK2 activ – activators of human GIRK2 potassium channels; 0.05% of 63,000 active; P48051; HEK293-GIRK2 thallium flux, Thallos fluorescence; calls only for hits at 25 µM;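 active means among the strongest 0.2% of first-round signals and kept after retests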;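 further: first round at about 10 µM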
Target sequence (P48051 whole entry, looked up): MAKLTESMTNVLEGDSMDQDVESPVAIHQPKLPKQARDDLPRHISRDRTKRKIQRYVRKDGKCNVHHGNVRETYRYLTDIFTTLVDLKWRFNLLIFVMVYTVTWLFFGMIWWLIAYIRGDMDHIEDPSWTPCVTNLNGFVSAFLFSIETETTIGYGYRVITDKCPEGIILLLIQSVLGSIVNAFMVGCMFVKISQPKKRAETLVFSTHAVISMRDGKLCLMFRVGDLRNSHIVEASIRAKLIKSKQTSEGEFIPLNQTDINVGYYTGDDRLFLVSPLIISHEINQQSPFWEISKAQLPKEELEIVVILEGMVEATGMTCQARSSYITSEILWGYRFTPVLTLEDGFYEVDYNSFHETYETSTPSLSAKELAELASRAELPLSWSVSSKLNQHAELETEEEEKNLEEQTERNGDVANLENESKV
Calls only; i = inactive. A portion of the library; rates above refer to the full screens.

entry	SMILES	GIRK2 activ
1	COC(=O)c1cc(C)ccc1NC(=O)c1cc2ccccc2c(=O)o1	i
2	COc1ccccc1-c1ccc(N2CCN(S(C)(=O)=O)CC2)nn1	i
3	CCOC(=O)c1ccc(Oc2c(C(F)(F)F)oc3cc(O)ccc3c2=O)cc1	i
4	COc1cc(/C=C/C(=O)NCCCn2ncccc2=O)cc(OC)c1OC	i
5	CCOc1ccccc1-n1c(C)cn2c3c(=O)n(CC)c(=O)n(C)c3nc12	i
6	COc1cc(C=NNc2ncnc3c2cnn3-c2ccccc2)ccc1O	i
7	COc1ccc(CNC(=O)CSc2cc(N3CCCCC3)ncn2)cc1	i
8	Cc1nn(C)c(C)c1S(=O)(=O)N(Cc1ccsc1)C1CC1	i
9	COc1ccc(-c2c(C)oc3cc(OCCN4CC(C)OC(C)C4)ccc3c2=O)cc1OC (centres undefined)	i
10	O=C(/C=C/c1ccc2c(c1)OCO2)NCc1cnn2ccccc12	i
11	COC(=O)Cn1c(=O)c2c(nc3n(CCCN4CCOCC4)c(C)cn23)n(C)c1=O	i
12	COc1ccccc1COc1cc(NC(=O)Nc2cccs2)ncn1	i
13	O=C1CC(NC23CC4CC(CC(C4)C2)C3)C(=O)N1Cc1ccccc1 (centres undefined)	i
14	CCCCCC(O)/C=C/C1=C(C/C=C\CCCC(=O)O)C(=O)CC1 (centres undefined)	i
15	Cc1cc(C(O)CCNS(=O)(=O)c2ccc(N3CCCCS3(=O)=O)cc2)c(C)o1 (centres undefined)	i
16	C=CCOc1ccc(C(O)=C2C(=O)C(=O)N(Cc3cccnc3)C2c2ccco2)cc1 (centres undefined)	i
17	CCN(CC)CCN1C(=O)C(=O)C(=C(O)c2ccncc2)C1c1ccc(F)cc1 (centres undefined)	i
18	O=C(c1cncc(Br)c1)N1CCN(C(=O)C2CC2c2ccc(F)cc2)CC1 (centres undefined)	i
19	COc1ccc(NC(=O)/C(C#N)=C2\SC(Cc3ccccc3)C(=O)N2c2ccccc2)cc1 (centres undefined)	i
20	COC(=O)c1cc(Nc2cc(Cl)c(OC)cc2OC)c2cccc(F)c2n1	i
21	O=C(O)CCC/C=C\C[C@@H]1[C@@H](/C=C/[C@@H](O)COc2cccc(C(F)(F)F)c2)[C@H](O)C[C@@H]1O	i
22	O=C(NCC(O)c1ccc2c(c1)CCO2)c1ccoc1 (centres undefined)	i
23	CCCc1nnsc1C(=O)Nc1ccc(-n2nnn(C)c2=O)cc1	i
24	COc1ccc(CCN2COc3ccc4c(c3C2)O/C(=C\c2ccncc2)C4=O)cc1	i
25	Cc1ccc(Nc2c(Cl)cc(Cl)cc2Cl)c(CC(=O)NCc2ccc(C(F)(F)F)cc2)c1	i
26	CCOc1ccc(NC(=O)CSc2nccn2-c2ccc(C(=O)NCc3ccc(C)o3)cc2)cc1	i
27	CCN(CC)CC(O)COc1ccc(C23CC4CC(CC(C4)C2)C3)cc1 (centres undefined)	i
28	CCCCc1ccc(NC(=O)Cn2c(C)nc3c(c2=O)CCCC3)cc1	i
29	COc1ccc2[nH]cc(CCNC(=O)c3cc4cccc(OC)c4o3)c2c1	i
30	CCc1c(C#N)c(SCC(=O)N2CCc3cc(OC)c(OC)cc3C2)nc2c1C(=O)CC(C)(C)C2	i

Further compounds follow.
entry	SMILES	GIRK2 activ
31	O=C(Nc1ccc(Cl)cc1)c1cc(=O)c(OCc2ccccc2)co1	i
32	COc1ccccc1OCC#CCNC(=O)c1ccc(F)c(F)c1	i
33	COc1ccc(C)cc1S(=O)(=O)NCCn1nc(-c2ccccc2)ccc1=O	i
34	O=C(CSCc1ccccc1)N1CC(c2nc(-c3ccco3)no2)C1	i
35	COC(=O)Nc1ccc(S(=O)(=O)N2CCCC(C(=O)NCC3CCCO3)C2)cc1 (centres undefined)	i
36	COc1ccccc1C1(CNS(=O)(=O)c2ccc(N3CCCCS3(=O)=O)cc2)CCOCC1	i
37	O=C(NCCC(O)c1cccs1)Nc1ccc2c(c1)OCO2 (centres undefined)	i
38	Cc1cn2c3c(=O)n(CC(N)=O)c(=O)n(C)c3nc2n1CCCN1CCOCC1	i
39	CN(c1ccc2c(c1)OCO2)S(=O)(=O)c1ccsc1-c1nc(-c2ccc(Cl)cc2)no1	i
40	O=C(Cn1cc(S(=O)(=O)c2ccc(Cl)cc2)c(=O)c2ccccc21)Nc1ccc2c(c1)OCO2	i
41	O=C(c1nnn(-c2ccc(C(F)(F)F)cc2)n1)N1CCOCC1	i
42	CCOC(=O)C1CCN(Cc2cc(=O)oc3cc(-c4ccccc4)c(O)cc23)CC1	i
43	Cc1cc(NC(=O)C2=COCCO2)n(-c2nc3c(F)cccc3s2)n1	i
44	COC(=O)c1cn(Cc2ccc(C(C)(C)C)cc2)nc1S(=O)(=O)N1CCSCC1	i
45	Cc1nc(-c2ccccc2)sc1CC(=O)NCC1CCS(=O)(=O)C1 (centres undefined)	i
46	CNCCNS(=O)(=O)c1cccc2cnccc12	i
47	CCN(CC)c1cc(Cl)nc(Nc2cc(Cl)nc(N)n2)n1	i
48	COc1ccc(-c2noc(-c3cc(-c4cccs4)[nH]n3)n2)c(OC)c1	i
49	Cc1ccc(N2C(=O)C3N=NN(Cc4nc(-c5ccc(Cl)cc5)no4)C3C2=O)cc1F (centres undefined)	i
50	CCCc1noc(-c2ccc(SCC(=O)Nc3ccc(F)c(C)c3)nc2)n1	i
51	COC(=O)c1ccsc1NC(=O)CC1Sc2ccc(C(F)(F)F)cc2NC1=O (centres undefined)	i
52	COc1cccc2sc(N(C)CC(=O)Nc3ccc4c(c3)OCO4)nc12	i
53	O=C(Cn1c(=O)oc2ccccc21)NCC1CCN(C(=O)c2ccoc2)CC1	i
54	O=C(NCC1(c2ccc(F)cc2)CCOCC1)c1ccc(Cl)s1	i
55	O=C(NCc1ccc(OC(F)(F)F)cc1)C(c1ccccc1)n1cccc1 (centres undefined)	i
56	O=C(Cc1cccs1)NCc1cnn2ccccc12	i
57	Cc1cc(NC(=O)c2cc(-c3ccco3)on2)sn1	i
58	COc1ccc(C(=O)CSc2nc3cc(C(=O)NC(C)C)ccc3c(=O)n2CC(C)C)cc1OC	i
59	O=C(Cn1ccn(-c2cccc(Cl)c2)c(=O)c1=O)Nc1ccccc1C(F)(F)F	i
60	O=C(CCCCCCNC(=O)c1cnc(N(c2ccccc2)c2ccccc2)nc1)NO	i

More results follow.
nr	SMILES	GIRK2 activ
61	O=C(NCCn1ncccc1=O)c1csc(-n2cccc2)n1	i
62	O=C(CCn1c(=O)oc2ccc(Cl)cc21)NCCCN1CCCC1=O	i
63	O=C(NCCn1cnc(-c2ccccc2)cc1=O)c1cc(-c2cccs2)[nH]n1	i
64	COc1ccccc1C(=O)NC1CCN(c2ccc(-c3ccccc3F)nn2)C1 (centres undefined)	i
65	O=C(Nc1nc(C(=O)N2CCN(c3ncccn3)CC2)co1)c1ccccc1	i
66	CC1(C)OCC2(CO1)CN(C(=O)CSc1nc3ccccc3o1)C2	i
67	COc1ccc(OCC(=O)Nc2cc(C)nc3c(C)cc(C)cc23)cc1	i
68	O=C(Nc1ccccc1C(F)(F)F)N1CCC(Oc2ccccn2)CC1	i
69	CCOc1ccccc1NC(=O)C1=Cc2cc(Br)ccc2OC=C1	i
70	COC(=O)c1ccc(S(=O)(=O)NCC2(c3ccc(F)cc3)CCOCC2)cc1	i
71	COc1ccc(-c2c(C)noc2-c2ccc(OC)cc2O)cc1	i
72	CN1CCN(C(CNS(=O)(=O)c2ccc(Br)cc2)c2ccc3c(c2)OCO3)CC1 (centres undefined)	i
73	O=C(/C=C/c1cccs1)NCc1cc(-c2ccncc2)n(C2CCCC2)n1	i
74	O=C(Cn1nc(-c2ccccc2)c2sc(N3CCCCC3)nc2c1=O)NCc1ccco1	i
75	Cc1ccc(Cn2c(=O)c3c(nc4n3CC(O)CN4c3ccccc3)n(C)c2=O)cc1 (centres undefined)	i
76	O=C(NCC1(O)CCOc2ccccc21)C1(c2ccc(F)cc2)CC1 (centres undefined)	i
77	CCC(C)n1c(C)cn2c3c(=O)n(CC(N)=O)c(=O)n(C)c3nc12 (centres undefined)	i
78	CC(C)n1nc(C(=O)N2CCN(c3ccccc3)CC2)ccc1=O	i
79	Cc1ccc2nc(N(CC3CCCO3)C(=O)C3CC3)sc2c1 (centres undefined)	i
80	Cc1nn(C)cc1S(=O)(=O)N1CCN(C(c2ccccc2)c2ccccc2)CC1	i
81	O=C(Cn1cnc2c(sc3ccccc32)c1=O)Nc1ccc2c(c1)OCCO2	i
82	O=c1[nH]c2nc(NCc3ccccc3Cl)ncc2c(=O)n1Cc1ccccc1F	i
83	CC(C)(C)C(O)CCNC(=O)Cc1cccs1 (centres undefined)	i
84	CCOCCn1c(=O)c2c(nc3n2CCN3c2cccc(C)c2C)n(C)c1=O	i
85	COCCCNC(=O)CSc1nc(-c2ccc(OC)c(OC)c2)[nH]c1-c1ccc(C)cc1	i

The list goes on:
nr	SMILES	GIRK2 activ
86	COc1ccc(C2CC3C4NN=C(CCC(=O)NCc5ccccc5Cl)N4C=CN3N2)cc1 (centres undefined)	i
87	CCNC(=O)N1CCOC2(CCOCC2)C1	i
88	Cc1cc(NC(=O)C2CCN(c3ccc(-c4ccco4)nn3)CC2)sn1	i
89	COc1cc(COCC2CCN(S(=O)(=O)c3ccc(F)c(Cl)c3)CC2)cc(OC)c1	i
90	CC(=O)Nc1ccc(S(=O)(=O)N2CCCC(c3nnc(C)s3)C2)cc1 (centres undefined)	i
91	Cc1cc(C)c(S(=O)(=O)N2CCN(Cn3cnc4ccccc43)CC2)c(C)c1	i
92	CN(C)CCN1C(=O)c2oc3ccccc3c(=O)c2C1c1ccc(F)cc1 (centres undefined)	i
93	COc1ccc(Cl)cc1NC(=O)COc1cc(C)nc(-c2ccc(C)cc2)n1	i
94	O=C(CCn1cncn1)Nc1ccccn1	i
95	Cc1nnc(NC(=O)c2csc(-c3cnccn3)n2)s1	i
96	CCCCn1c(SCC(=O)NCC2CCCO2)nc2c(-c3ccccc3)c[nH]c2c1=O (centres undefined)	i
97	O=C(CN1C(=O)CCC1=O)N1CCC2(CC1)OCCS2	i
98	COc1ccc(NC(=O)Cn2cccc(S(=O)(=O)N3CCC(C)CC3)c2=O)cc1	i
99	O=C(/C=C\c1ccc2c(c1)OCO2)Nc1c2c(nn1CC(=O)NCc1ccco1)CSC2	i
100	CNC(=O)CSc1nnc(N2CCN(C(=O)c3cc4ccccc4oc3=O)CC2)s1	i
101	Cc1c(Cl)cccc1S(=O)(=O)NC(C)Cc1ccco1 (centres undefined)	i
102	O=C(Oc1ccc2c(=O)c(-c3ccc(Br)cc3)c(C(F)(F)F)oc2c1)N1CCOCC1	i
103	C=C1C2OC(OC(=O)CC(C)C)C3C1CC(OC(C)=O)C3(CCl)O2 (centres undefined)	i
104	Cc1csc(SCC2CCN(C(=O)c3ccc4nsnc4c3)CC2)n1	i
105	O=C(c1ccc(Br)cc1)N1CCN(CC(O)C2CC2)CC1 (centres undefined)	i
106	Cn1c(NC(=O)c2ccco2)c(-c2ccccc2Cl)c(=O)c2ccccc21	i
107	Cc1cc2oc3c(c(=O)c2cc1Cl)C(c1ccccc1)N(CCN1CCOCC1)C3=O (centres undefined)	i
108	Cc1c(OS(C)(=O)=O)ccc2c1O/C(=C\c1ccc3c(c1)OCO3)C2=O	i
109	O=C(Oc1ccc(/C=C/c2ccncc2)cc1)c1ccc(S(=O)(=O)N2CCCC2)cc1	i
110	CCCCc1ccc(-n2nnc(C(=O)NC3CCCC3)c2C)cc1	i

Following part:
nr	SMILES	GIRK2 activ
111	O=c1cccnn1CCNS(=O)(=O)/C=C\c1ccccc1	i
112	O=C(NCc1cccs1)Nc1nnc(Cc2ccc(F)cc2)o1	i
113	CCCCC[C@H](O)/C=C/[C@@H]1[C@H]2C/C(=C\CCCC(=O)O)C[C@H]2C[C@H]1O	i
114	Nc1ccc2c(c1)N(S(=O)(=O)c1ccc(F)cc1)CCC2	i
115	COC(=O)c1sccc1S(=O)(=O)NCC#CCOc1cccc(C(F)(F)F)c1	i
116	CCOc1ccc(NS(=O)(=O)c2ccc(NC(=O)c3cc(OC)c(OC)c(OC)c3)cc2)cc1	i
117	CC(=O)c1ccc(NC(=O)CCc2csc(NC(=O)c3ccc(=O)[nH]c3)n2)cc1	i
118	Cc1nc(-c2ccccc2)sc1CNC(=O)CNC(=O)c1ccccc1	i
119	CN(CCO)S(=O)(=O)c1cc(C(=O)O)ccc1Cl	i
120	Cc1cc(C)c(S(=O)(=O)NC(C)(C)C)c(C)c1N(C)S(C)(=O)=O	i
121	Cc1ccc(CNC(=O)NC2(c3nc(-c4ccncc4)no3)CCCCC2)cc1	i
122	COc1ccc(C(=O)c2c(N)c(C(=O)Nc3cccc(F)c3)c3ccccn23)cc1	i
123	COc1cc(NC(=O)Nc2nc3cc(C)c(C)cc3s2)cc(OC)c1OC	i
124	Cc1cc(C)n(CCNC(=O)C2(c3ccc(F)cc3)CC2)n1	i
125	COc1ccc(CNC(=O)C2CCCN(c3cnc4ccccc4n3)C2)cc1OC (centres undefined)	i
126	COc1cccc(-c2[nH]ncc2-c2nc(-c3ccc(C)c(C)c3)no2)c1	i
127	COCCNC(=O)NCC#CCOc1ccccc1OC	i
128	COc1ccc(NC(=O)Cn2ncn3nc(-c4ccccc4)cc3c2=O)c(OC)c1	i
